TRPV1 PAM = human TRPV1 potentiation; AID 540277; actives 0.02% (n = 320,000); potentiation, % at 8.33 µM; TRPV1-expressing cells, Fluo-8 calcium influx, capsaicin EC20 potentiation; host cell line not named in the record; control for the full effect not named in the record; active means potentiation above 80%; inconclusive means 30% to 80%; inactive means below 30%; also: 0% is about no effect
Target sequence (Q8NER1 whole entry, looked up): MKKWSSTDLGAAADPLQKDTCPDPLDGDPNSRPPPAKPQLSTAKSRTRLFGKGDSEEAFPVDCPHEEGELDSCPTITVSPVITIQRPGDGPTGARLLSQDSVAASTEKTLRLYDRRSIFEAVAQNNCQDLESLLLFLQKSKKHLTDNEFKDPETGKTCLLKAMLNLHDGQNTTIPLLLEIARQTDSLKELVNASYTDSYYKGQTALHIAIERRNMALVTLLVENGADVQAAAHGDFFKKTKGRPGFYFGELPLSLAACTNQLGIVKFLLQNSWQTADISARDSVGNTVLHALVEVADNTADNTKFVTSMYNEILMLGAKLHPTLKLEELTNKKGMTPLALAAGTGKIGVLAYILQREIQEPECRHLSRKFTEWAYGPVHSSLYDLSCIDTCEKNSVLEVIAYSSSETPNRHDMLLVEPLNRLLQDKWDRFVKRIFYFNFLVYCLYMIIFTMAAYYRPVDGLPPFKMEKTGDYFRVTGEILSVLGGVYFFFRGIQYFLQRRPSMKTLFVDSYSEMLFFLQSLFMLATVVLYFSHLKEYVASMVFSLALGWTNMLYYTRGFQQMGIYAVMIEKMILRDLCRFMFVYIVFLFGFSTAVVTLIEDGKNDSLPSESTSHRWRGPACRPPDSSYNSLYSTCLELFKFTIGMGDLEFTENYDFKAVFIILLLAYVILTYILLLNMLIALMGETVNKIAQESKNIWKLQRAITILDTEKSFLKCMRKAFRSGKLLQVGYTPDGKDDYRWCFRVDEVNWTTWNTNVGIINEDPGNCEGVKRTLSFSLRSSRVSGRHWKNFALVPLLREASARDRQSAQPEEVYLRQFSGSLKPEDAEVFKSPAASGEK
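Cells expressing TRPV1 were dye-loaded with Fluo-8 and read kinetically: 10 s baseline, 3 min after compound (agonist portion), then 2 min after EC20 capsaicin (allosteric enhancer portion). Calcium-bound dye fluorescence at 480/520 nm.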
Six1-Eya2 blk = inhibitors of human Six1/Eya2 interaction; Q15475+O00167; AlphaScreen GST-Six1/His-Eya2 binding, biochemical; active compounds read low; control for the full effect not named in the record; activity change, % (test concentration not listed); actives 0.56% (n = 360,000); AID 651725; in the data active = activity change below about -65%; inconclusive = about -30% to -65%; inactive = above about -30%; also: % is scaled to controls: 0 for no effect and ±100 for the full control effect
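GST-Six1 + His-Eya2 (5X stock: 250/500 nM); Tris pH 8.0, 300 mM NaCl, 0.05% BSA, 0.02% Tween 20; GSH donor/Ni acceptor beads; 1 h 37 °C dark; AlphaScreen readout.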
D2 potentiator = human D2 receptor positive allosteric modulation; P14416; DiscoveRx D2 beta-arrestin cells, luminescence, 90 min; 100% = 57 uM dopamine signal; potentiation, % (test concentration not listed); actives 0.23% (n = 360,000); AID 624464; active = potentiation of 50% or more; inconclusive = 30% to 50%; inactive = 30% or less;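 also: compound concentration not given in the record; tested on top of an EC20 dose of dopamine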
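PathHunter D2 cells, attached overnight at 37 deg C, received compound in DMSO plus dopamine at EC20 (50 nM final) for 90 min at 37 deg C. Beta-arrestin recruitment was read as luminescence after 1 h with detection reagent at ambient temperature.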
TRPML1 ag = activates the human TRPML1 channel; activation, % (test concentration not listed); TRPML1-expressing cells, Ca2+ dye fluorescence, FDSS; host cell line not named in the record; reference of the full effect not given here; actives 0.12% (n = 410,000); Q9GZU1; in the data active = activation above about 50%; inconclusive = about 30% to 50%; inactive = below about 30%; also: 0% is about no effect; the text of the record puts the active cut at 80%
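Agonist activity was taken from a 110 s kinetic Ca2+ dye read on the FDSS after pinning compounds onto TRPML1-DL cells. The cells were seeded at 1,500/well with Tet inducer, incubated about 16 h, then dye-loaded at room temperature.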
TRPML1 blocker = inhibitors of human TRPML1 channel; actives 0.02% (n = 390,000); activity change, negative = inhibition, % (concentration not given with the values); AID 624415; TRPML1-inducible cells, Ca2+ dye fluorescence, FDSS; active compounds read low; inhibition of EC80 agonist-evoked calcium signal; Q9GZU1; in the data active means activity change below about -50%; inconclusive means about -30% to -50%; inactive means above about -30%;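 also: stimulus is agonist 54-4 at its EC80 concentration; % is scaled to controls: 0 for no effect and ±100 for the full control effect; the text of the record puts the active cut at -80%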
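Calcium fluorescence in TRPML1-DL cells induced overnight with Tet: a 110 s read after compound pin addition, then a 110 s antagonist read after challenge with 54-4 at 4 uM final (EC80).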
CtBP-E1A blk = inhibitors of CtBP/E1A interaction. AlphaScreen GST-E1A/His-CtBP binding, 1536-well; active compounds read low; control for the full effect not named in the record. activity change, % (concentration not given with the values). actives 0.49% (n = 340,000). AID 651724; in the data active means activity change below about -65%; inconclusive means about -30% to -65%; inactive means above about -30%; also: % is scaled to controls: 0 for no effect and ±100 for the full control effect
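AlphaScreen with 125 nM GST-E1A and 125 nM His-CtBP (5X stocks) in Tris pH 8.0, 300 mM NaCl, BSA, Tween 20, TCEP. Compounds preincubated 2 h at 37 deg C, then glutathione donor/nickel acceptor beads added for 1 h at 37 deg C in dark.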
Starred values were filed as active, the others as inactive; ? = inconclusive; / = not tested or not shown.

cpd	SMILES	TRPV1 PAM	Six1-Eya2 blk	D2 potentiator	TRPML1 ag	TRPML1 blocker	CtBP-E1A blk
1	COc1ccc(N2CC(NS(=O)(=O)c3cccnc3)CC2=O)cc1OC (stereo not given)	5	6	-17	1.4	1	8
2	Nc1nc(N2CCN(C(=O)c3ccco3)CC2)nc2ccc(Br)cc12	10	-6	-5	0.6	14	/
3	COc1ccc(CCNc2ccc(C(CC(N)=O)NC(=O)c3ccccc3)cc2[N+](=O)[O-])cc1 (stereo not given)	2	1	-3	-0.1	4	/
4	NC(=O)COc1cccc(/C=N/NC(=O)c2ccc(-n3cccc3)cc2)c1	-5	-5	-9	0.0	-5	2
5	COc1ccc(C(=O)COC(=O)COc2cccc3c2OC(C)(C)C3)c(OC)c1	20	-3	-68	1.4	8	6
6	CC(=O)Oc1ccccc1C1=NN(C(=O)/C=C/c2ccccc2)C(c2ccccc2)C1 (stereo not given)	-3	-2	-29	2.6	-6	-12
7	CCc1nc2ccc(C(=O)Nc3ccc4c(c3)OCC(=O)N4)cn2c1N(CC)Cc1cccc(Br)c1	/	-10	-11	-0.7	/	-21
8	CC1C(=O)N2CCCc3cc(NC(=O)C(=O)NCc4cccnc4)cc1c32 (stereo not given)	-3	-2	-18	-0.1	12	5
9	C/C(=C\c1ccccc1)C(=O)Nc1ccc(Cl)cn1	-6	-1	-42	/	/	/
10	CCC1CCCCN1CCN1C(=O)C2C(C(=O)Nc3cccc(OC)c3)C3C=CC2(O3)C1C(=O)NC1CCCCC1 (stereo not given)	19	8	-14	-0.2	8	2
11	COc1ccc(CN(C)C(=O)C2CCN(S(=O)(=O)c3cccs3)CC2)cc1F	-7	1	1	-0.7	15	10
12	CC(=O)Nn1c(COc2ccccc2C)nc2ccccc2c1=O	24	0	-12	0.6	0	9
13	CC1Cc2ccccc2N1C(=O)CCn1c(=O)sc2ccccc21 (stereo not given)	-9	3	-5	1.2	9	4
14	Cc1ccccc1-c1nc(CN2CCC(C(=O)NCCCN3CC(C)CC(C)C3)CC2)c(C)o1 (stereo not given)	17	-3	-18	0.0	2	1
15	Cc1cc(C)n(CC(O)COc2ccccc2)n1 (stereo not given)	-7	-1	-5	0.1	2	4
16	COc1cc(OC)cc(C(=O)Nc2nc(CC(=O)NCc3ccccc3OC)cs2)c1	6	-7	21	1.2	47	-4
17	CN(CC(=O)Nc1c(Cl)cccc1Cl)CC(=O)N1CCc2ccccc21	/	0	-8	-0.7	-4	0
18	N#C/C(=C/c1ccc(OCc2ccc(C(=O)O)cc2)c(Br)c1)c1cccc(F)c1	-7	1	6	-0.2	-6	13
19	CCc1nc2ccc(C(=O)N3CCN(C(=O)c4ccco4)CC3)cn2c1N(C)CCC(C)C	/	1	-4	-0.9	/	-6
20	CCOc1ccc(S(=O)(=O)Nc2cc(Cl)ccc2O)cc1	-20	1	15	0.4	10	-16
21	O=C(NCC1CCCO1)c1cccc(NC(=O)c2ccc(Br)cc2)c1 (stereo not given)	10	2	-5	0.0	0	-1
22	COc1cc(/C=C/c2nnc3c4ccccc4ncn23)cc(OC)c1OC	18	-17	-13	1.3	7	-5
23	CCOc1ccccc1N1CN(C2CCCCC2)CNC1=S	14	-2	-2	1.2	2	-13
24	CN1CCN(Cc2cccc(Oc3ccccc3)c2)CC1	9	-1	-28	-0.2	12	10
25	CC(C)OCCCNC(=S)N1CCC(C(=O)c2ccc3c(c2)OCCO3)CC1	-22	3	-8	0.9	0	-1
26	COC(=O)CN1C(=O)C(C)=C(c2ccc(C)cc2)S1(=O)=O	-3	7	-7	-0.6	10	7
27	CCN(Cc1ccncc1)Cc1ccc(OC)cc1OC	-8	13	-2	-0.8	-9	/
28	S=c1nc(COc2ccccc2)[nH]c2ccccc12	10	-2	-15	0.0	-11	/
29	O=C1/C(=C/c2cccs2)COc2ccccc21	12	-3	-9	-0.4	14	-3
30	CCS(=O)(=O)N1CCN(S(=O)(=O)c2ccc3ccccc3c2)CC1	?	9	-1	-0.3	-8	5
31	O=C(NC(Nc1nc2ccc([N+](=O)[O-])cc2s1)(C(F)(F)F)C(F)(F)F)c1ccccc1Cl	4	-7	-6	2.6	23	-2
32	Nc1nonc1-n1nnc(C(=O)N/N=C/c2ccc(OCc3ccccc3)cc2)c1CNc1ccccc1	-11	4	-5	-0.6	3	2
33	CCOCCCNC(=S)Nc1ccc2nc(N3CCN(CC)CC3)cc(C)c2c1	12	-7	-26	-0.3	11	-12
34	CCCCn1c(N)c(N(CC)C(=O)C2COc3ccccc3O2)c(=O)[nH]c1=O (stereo not given)	5	-12	17	0.1	2	2
35	Cc1cc(C)c2[nH]c(=O)c(CN(Cc3cccs3)C(=S)NCC3CCCO3)cc2c1 (stereo not given)	6	2	-1	3.0	13	19
36	CN(C(=O)c1cccc(C#N)c1)c1nnc(-c2ccccn2)s1	10	7	3	-0.5	1	-1
37	CCOC(=S)SCC(=O)Nc1ncc(C)s1	-11	-2	-7	1.0	-5	-1
38	CCCCNC(=O)CNC(=S)N(Cc1cc(OC)c(OC)c(OC)c1)C1CCCC1	3	1	1	-0.5	-5	4
39	COc1cccc(-c2nc(CS(=O)(=O)CC(=O)Nc3ccccc3C)c(C)o2)c1	-7	1	-1	1.9	-10	-1
40	O=C(N/N=C/c1cccc([N+](=O)[O-])c1)c1cc[n+](CCO)cc1	-6	2	0	-0.6	2	/
41	O=C(Cc1ccccc1Cl)NCCCn1ccnc1	4	13	3	0.1	17	11
42	OC(CC(O)c1ccccc1)c1ccccc1 (stereo not given)	/	8	19	/	/	6
43	C[C@H](CO)N1C[C@H](C)[C@@H](CN(C)S(=O)(=O)c2cn(C)cn2)Oc2ccc(NC(=O)Nc3ccccc3)cc2C1=O	/	-29	-16	-0.4	0	10
44	CN(C)S(=O)(=O)n1cc(/C=C(\NC(=O)c2ccccc2F)C(=O)N2CCOCC2)c2ccccc21	-9	5	-9	0.3	-3	-5
45	COc1ccc(C(=O)Nc2cccc(OC(=O)c3ccco3)c2)cc1	-1	2	-4	0.7	13	0
46	COc1ccccc1-n1c(SCC(=O)N2CCCCC2)nc(O)c(Cc2ccccc2)c1=O	7	1	-2	1.0	10	/
47	NC(=O)c1cc(NC(=O)c2cc(Br)c(Br)s2)cc(C(N)=O)c1	9	-27	-1	-0.5	5	17
48	Cn1nnnc1SCC(=O)N1N=C(c2ccc(Cl)cc2)CC1c1ccco1 (stereo not given)	/	-15	-3	-0.8	-5	/
49	Cc1ccc2c(c1)N(Cc1ccc([N+](=O)[O-])cc1)C=NS2(=O)=O	5	0	0	-1.0	-6	-22
50	Cc1ccc(S(=O)(=O)NNc2ccccc2)cc1	-1	1	11	-0.2	-4	5
51	CCCCN(C=O)c1c(CC)nc2ccc(C(=O)NCCc3c[nH]c4ccccc34)cn12	/	-1	3	-1.4	/	0
52	CCOC(=O)C1CCCN(C(=O)c2cccc(S(=O)(=O)N3CCOCC3)c2)C1 (stereo not given)	11	8	-4	0.5	0	-8
53	O=C(CCNC(=O)c1ccc(Cl)cc1)NCc1ccccc1Cl	-8	-3	-9	0.4	16	-4
54	COC(=O)[C@H](C)N1C/C=C\COc2c(Cl)cc(Cl)cc2S1(=O)=O	/	4	/	-1.1	1	-1
55	O=C(c1ncn(Cc2ccccc2)c1C(=O)N1CCc2ccccc2C1)N1CCc2ccccc2C1	-5	1	-11	3.2	17	-14
56	Cc1[nH]c2ccc(Br)cc2c(=O)c1CN1CCCCCC1	19	4	-11	0.6	-6	/
57	O=S(=O)(c1ccccc1)C1CON(Cc2ccccc2)C1c1ccccc1 (stereo not given)	-11	0	-1	1.4	13	6
58	COc1ccccc1NC(=O)CCC(=O)N/N=C(/C)c1ccc(C)cc1	-13	-3	-8	-0.6	29	3
59	Cc1ccc(NC(=O)CN(C)S(=O)(=O)c2ccc3c(c2)c(=O)n(C)c(=O)n3C)cc1	2	-11	-8	0.2	-13	?
60	Cc1ccc(OCC(=O)NCCNC(=O)c2cnccn2)cc1	-1	1	-6	0.0	3	4

Entries from the list above that have two or more sulfur atoms (4):
cpd	SMILES	TRPV1 PAM	Six1-Eya2 blk	D2 potentiator	TRPML1 ag	TRPML1 blocker	CtBP-E1A blk
11	COc1ccc(CN(C)C(=O)C2CCN(S(=O)(=O)c3cccs3)CC2)cc1F	-7	1	1	-0.7	15	10
30	CCS(=O)(=O)N1CCN(S(=O)(=O)c2ccc3ccccc3c2)CC1	?	9	-1	-0.3	-8	5
35	Cc1cc(C)c2[nH]c(=O)c(CN(Cc3cccs3)C(=S)NCC3CCCO3)cc2c1 (stereo not given)	6	2	-1	3.0	13	19
37	CCOC(=S)SCC(=O)Nc1ncc(C)s1	-11	-2	-7	1.0	-5	-1

Other structures.
cpd	SMILES	TRPV1 PAM	Six1-Eya2 blk	D2 potentiator	TRPML1 ag	TRPML1 blocker	CtBP-E1A blk
61	C=C(C)CSc1nncn1/N=C/c1ccc(OC)cc1	0	1	-1	-0.2	-5	-8
62	COc1ccc(S(=O)(=O)N2CCOC2CNC(=O)C(=O)NCc2ccncc2)cc1C (stereo not given)	/	3	-19	-0.8	16	23
63	CN(C)S(=O)(=O)N1CCC(Oc2ccc(C(=O)N3CCCCCCC3)cc2)CC1	-3	7	-5	-0.4	-13	5
64	Cc1onc(-c2c(Cl)cccc2Cl)c1/C(N)=N/OC(=O)C1CC1	1	0	-14	-0.9	-1	/
65	Cc1nc(N)sc1-c1csc(Nc2ncccn2)n1	0	?	0	0.4	-4	-26
66	CCCCn1nc2cc(C(=O)NCCCCc3ccccc3)ccc2c1OCC	-6	0	-4	1.5	5	3
67	CCOc1ccc(NC(=O)C2CCC(C)(C(=O)O)C2(C)C)cc1 (stereo not given)	?	8	6	0.2	-3	-2
68	O=C(OCc1ccccc1)N1CCC2CC1c1cc(-c3ccc4c(c3)OCO4)ccc12 (stereo not given)	/	-5	/	0.6	19	-2
69	COc1ccc(F)cc1-c1cc(C(=O)N2CCc3ccccc3C2)[nH]n1	/	1	-13	-0.5	/	0

Screening results as filed in PubChem.
